VACV E9 pol inh: vaccinia E9 polymerase processive synthesis inhibitors, primary screen, biochemical, absorbance; Vaccinia virus DNA polymerase (E9) processive complex; in vitro processive DNA synthesis, absorbance read-out; active compounds read low; some inactives read as strong as hits; normalized absorbance, % (no concentration beside the values); 0.94% of 46,000 active;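 active = replicate mean up to 90% and picked by the depositor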;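 note: 100% = median of the test wells of a plate; 100 nL library stock went into each well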
Starred values were filed as active, the others as inactive; & = joins results of further samples. Not all compounds are listed; rates above refer to the full screens.

cpd	Structure	VACV E9 pol inh
1	COc1ccc(S(=O)(=O)NC2CCCCCC2)c2ccccc12	86
2	COc1ccc(CCN2C(=O)/C(=C/C3CC=CCC3)SC2=S)cc1OC (stereo not given)	100
3	Cc1nn(-c2ccc(F)cc2)c2sc(C(=O)N(C)C3CCN(C)CC3)cc12	87
4	CC(=O)NCCc1nc2ccccc2n1CCOc1ccccc1	101
5	Cc1c(C(=O)NCCN2CCN(C)CC2)sc2nc3n(c(=O)c12)CCCCC3	91
6	S=c1nc(C2CCCCC2)[nH][nH]1	100
7	CCn1c2ccccc2c2cc(CNCCc3ccc(Cl)cc3)ccc21	99
8	CCCOc1ccc(-c2cc(C(F)(F)F)c(C#N)c(SCC(=O)O)n2)cc1	102

Look-ups from the results shown.
compound 4 | VACV E9 pol inh: 101
compound 5 | VACV E9 pol inh: 91
compound 1 | VACV E9 pol inh: 86

Next compounds
cpd	Structure	VACV E9 pol inh
9	CCOC(=O)C1=NN(c2ccccc2)C2c3cc(OC)c(OC)cc3CCN12 (stereo not given)	81
10	N#Cc1cnc(N(Cc2ccccc2)Cc2ccccc2)nc1N	110
11	CC1Cc2nn(-c3ccccc3)c(-c3cccnc3)c2C(=O)C1C (stereo not given)	100
12	CC(=O)Nc1ccc(C)c(NC(=S)Nc2ccc(Cl)c(Cl)c2)c1	107
13	O=C(CC12CC3CC(CC(C3)C1)C2)NCc1ccc2c(c1)OCO2	92
14	CCc1ccc(OCc2ccc(C(=O)O)cc2)cc1	100
15	OC(c1ccccc1)c1nc2ccccc2[nH]1 (stereo not given)	100
16	N/C(=C\C(=O)c1c(O)c(F)c(F)c(F)c1F)C(=O)O	99
17	Cc1onc(-c2ccccc2)c1C(=O)N1CCCN2C(=O)c3ccccc3C21 (stereo not given)	91
18	C/C(O)=C(\C#N)c1nc2ccccc2[nH]1	100
19	COC(=O)c1c(N2C(=O)CCC2=O)sc2c1CCCC2	92
20	O=C(Nc1c(-c2cccs2)nc2ccccn12)c1cccc(C(F)(F)F)c1	90
21	NNC(=O)CCCNc1ccc(Cl)cc1	100
22	O=C1/C(=C/c2c(NCC3CCCO3)nc3ccccn3c2=O)SC(=S)N1C1CCCCC1 (stereo not given)	99
23	CC1(C)CC(NCc2ccco2)=CC(=C(C#N)C#N)C1	95
24	COC(=O)c1scc(S(C)(=O)=O)c1N=CN(C)C	99
25	O=C(/C=C/c1ccc(Cl)cc1Cl)Nc1cccc2cnccc12	99
26	NC(=NCCC[C@H](N)C(=O)O)N[N+](=O)[O-]	100&101
27	O=c1[nH]cnc2scc(-c3ccc(F)cc3)c12	94
28	CC(=O)Oc1ccc(C(O)(C(F)(F)F)C(F)(F)F)cc1	99
29	O=C(CSc1c2c(nc3ccccc13)CCC2)N1CCCC1	87
30	O=C1C=C(SCc2c(F)cccc2Cl)CC(c2ccccc2)C1 (stereo not given)	107
31	Cc1ccccc1NC(=O)C1C2c3ccccc3OC1(C)N=C1SCC(=O)N12 (stereo not given)	100
32	CN1C(C(=O)NC(C)(C)C)=CC(c2ccc(F)cc2)=NS1(=O)=O	100
33	C=CCN=C(N)SCc1nc2ccccc2c(=O)[nH]1	98
34	COc1ccc2nc(N3CCOCC3)[nH]c2c1	105
35	COc1ccc(Cn2c(=O)oc3ccc(C)cc32)cc1	101
36	Cc1cc2cc(CCNC(=O)/C=C\c3ccccc3)c(=O)[nH]c2cc1C	96
37	C=CCNC(=O)Cn1c(C(F)(F)F)nc2ccccc21	107
38	O=C(COc1ccc(Cl)cc1)OCC(=O)N1CCc2ccccc2C1	100
39	Cc1cc2cc(CNC(=O)Cc3cccs3)ccc2n1C	85
40	Nc1ccc(-c2nc3ccccc3n2CCCOc2ccccc2)cc1	100
41	O=C(NCCS(=O)(=O)Cc1ccc(F)cc1)c1c(F)cccc1Cl	98
42	Cc1cccc(OCCn2c(CO)nc3ccccc32)c1	97
43	CC(=O)Nc1scc[n+]1Cc1ccccc1	103
44	CC12CC3(C)CC(C)(C1)CC(C(=O)NC(=S)NC(C)(C)C)(C2)C3	100
45	Clc1cnc(-n2cccc2)c(Br)c1	94
46	COc1ccc(N2C(=O)CC(N(C(C)=O)c3ccc(OC)cc3)C2=O)cc1 (stereo not given)	100
47	CCc1ccc(NC2OC(=O)c3ccccc32)cc1 (stereo not given)	93
48	Brc1ccc(-c2noc(-c3ccc(Br)cc3)n2)cc1	106

Reformatted field by field: two of the compounds above
[42] Cc1cccc(OCCn2c(CO)nc3ccccc32)c1
- VACV E9 pol inh: 97

[43] CC(=O)Nc1scc[n+]1Cc1ccccc1
- VACV E9 pol inh: 103

The results go on:
cpd	Structure	VACV E9 pol inh
49	COc1ccc(NC(=O)CCc2c(C)nc3cc(-c4ccc(Cl)cc4)nn3c2C)c(OC)c1	103
50	O=S(=O)(c1cccc(C(F)(F)F)c1)N1CC=C(c2ccccc2)CC1	78
51	CC1(C)OC(=O)C=C(c2ccc(Cl)cc2)O1	100
52	N#CCc1ncc(CSc2nnnn2-c2ccccc2)s1	100
53	O=C(c1cc2ccccc2c(=O)s1)N1CCOCC1	108
54	Cc1cccc(NC(=O)CCC(=O)O)c1	100
55	O=C(NCc1ccccc1)C1CC(c2ccc(F)cc2)=NO1 (stereo not given)	100
56	CCOC(=O)c1cc(COc2c(Cl)cccc2Cl)on1	100
57	CCOC(=O)Cc1c(C)nc2c(-c3ccc(Cl)cc3)c(C)[nH]n2c1=O	100
58	O=S(=O)(CCC(F)(Br)C(F)(F)Br)c1ccccc1 (stereo not given)	96
59	COc1ccc(C(=O)N2CCN(c3c(C)cccc3C)CC2)cc1OC	100
60	Cc1cc(NC(=O)c2ccccc2)nc2c1c(=O)oc1ccccc12	92
61	CCOc1ccc(NC(=O)C(C)Oc2ccccc2)cc1 (stereo not given)	98
62	CCc1nnc2c3cnn(-c4ccccc4)c3ncn12	102
63	CCOC(=O)N1CCC(NC(=O)C2CCCCC2)CC1	119
64	CC(C)N(C(=O)CSc1ccccn1)c1ccccc1	107

Part of the list above in a different format:
[61] CCOc1ccc(NC(=O)C(C)Oc2ccccc2)cc1 (stereo not given)
  VACV E9 pol inh = 98
[62] CCc1nnc2c3cnn(-c4ccccc4)c3ncn12
  VACV E9 pol inh = 102

Further results.
cpd	Structure	VACV E9 pol inh
65	Cc1noc(-c2cc3cc(Br)ccc3oc2=O)n1	98
66	C=CCC(NCc1cccs1)c1ccco1 (stereo not given)	98
67	OCC(CO)(CO)NC(=S)Nc1cc(Cl)cc(Cl)c1	100
68	CC1CCN(C(=O)c2ccccc2Br)CC1	94
69	Cc1cc(CNC(=O)c2cc(C)n(C)n2)c(C(F)(F)F)o1	96
70	CCOc1ccc(CC(=O)NCc2cn3ccc(C)cc3n2)cc1	100
71	Nc1nc(CSC(=S)N2CCCCC2)nc(Nc2ccccc2)n1	100
72	CC(C)c1ccccc1NC(=O)c1cccc(S(=O)(=O)N(C)C)c1	101
73	O=C(NCc1ccc2c(c1)OCO2)c1cc2ccccc2oc1=O	100
74	COC(=O)/C=C1\SC(=Nc2ccccc2)NC1=O	100
75	COc1ccc(OCC(=O)N2c3ccccc3C(C)(c3ccccc3)CC2(C)C)cc1 (stereo not given)	100
76	Cc1ccccc1C(=O)OC(C)CN1CCCC1 (stereo not given)	104
77	CC(C)Sc1n[nH]c(=S)n1C	103
78	C=CCSc1nc2sc(C)c(C)c2c(=O)[nH]1	104
79	CNC(=O)CSCc1ccc(Br)cc1	99
80	CN(CC(=O)N1CCc2ccccc21)S(=O)(=O)c1ccc2[nH]c3c(c2c1)CCCC3	107
81	O=C(CSCc1ccccc1)NCc1ccc2c(c1)OCO2	101
82	CN1C(=O)C(C)(C)c2cc(S(=O)(=O)N(C)CC(=O)NCc3ccccc3)ccc21	107
83	CN1CCCN(C(=O)c2ccc(C#N)cc2)CC1	103
84	COc1cccc2sc(=NC(=O)C3=COCCO3)n(C)c12	99
85	CC(C)c1nc2ccccc2n1C(=O)c1ccccc1C(=O)O	100
86	CC12CCC(C(=O)O)(CC1=O)C2(C)C (stereo not given)	90
87	O=c1c2cc(NC(=S)NCc3ccccn3)ccc2nc2n1CCCCC2	91
88	CCC(=O)c1cn(CC(=O)N(CC)CC)c2ccccc12	98
89	O=C(Nc1ccc(F)cc1)N1CCN(Cc2ccccc2)CC1	98
90	O=C(/C=C/c1ccc(Br)o1)Nc1ccc(F)cc1F	98
91	COC(=O)CN1C(=S)N(c2ccccc2)C(=O)C1CC(=O)Nc1ccc(F)cc1 (stereo not given)	100
92	O=C(O)c1cc(-c2ccccc2Cl)on1	101
93	NC(=O)C1CCN(C(=O)c2sc3ccccc3c2Cl)CC1	84
94	CCc1ccc(S(=O)(=O)Nc2ccncc2)cc1	100
95	CCOC(=O)c1cc(C)[nH]c(=S)c1C#N	100
96	CCCCCCCCCCCCCCCC(=O)NCCO	101
97	CSc1nc2nc(-c3cccc(C(F)(F)F)c3)ccn2n1	93
98	COc1cccc(OCC(=O)Oc2ccc(C#N)cc2)c1	93
99	CNCc1cc2ccccc2o1	102
100	CC1CN(CCC(=O)Nc2ccc3c(c2)OCCO3)CC(C)O1 (stereo not given)	84
101	O=S(=O)(c1ccccc1)n1nc(-c2cccnc2)nc1NCc1cccs1	113
102	CCCCCCCCCCCCCC(=O)N[C@@H](C)[C@H](O)c1ccccc1	100
103	Nc1nc(N(Cc2ccccc2)Cc2ccccc2)nc(C(F)(F)F)n1	101
104	CCN(CC)c1ccc(C(=O)OCC(=O)NC2CCCCC2)cc1	101

An excerpt from above in order of count of non-hydrogen atoms, descending:
cpd	Structure	VACV E9 pol inh
101	O=S(=O)(c1ccccc1)n1nc(-c2cccnc2)nc1NCc1cccs1	113
103	Nc1nc(N(Cc2ccccc2)Cc2ccccc2)nc(C(F)(F)F)n1	101
104	CCN(CC)c1ccc(C(=O)OCC(=O)NC2CCCCC2)cc1	101
100	CC1CN(CCC(=O)Nc2ccc3c(c2)OCCO3)CC(C)O1 (stereo not given)	84
97	CSc1nc2nc(-c3cccc(C(F)(F)F)c3)ccn2n1	93
99	CNCc1cc2ccccc2o1	102

Next part.
cpd	Structure	VACV E9 pol inh
105	CCC(C(=O)NCCc1cc2ccc(OC)cc2[nH]c1=O)c1ccccc1 (stereo not given)	99
106	CC1(C)CC(=O)c2cc(-c3ccc(Br)cc3)n(CC(=O)O)c2C1	95
107	COC(=O)Cc1cc(=O)[nH]c(/N=C(\N)Nc2ccccc2)n1	100
108	O=C(CC(c1ccccc1)c1ccccc1)NCCn1ccc2ccccc21	95
109	Cc1cc2ncn(/N=C/c3ccc4c(c3)OCO4)c2cc1C	91
110	Cc1ccc(OCc2ccc(Cl)cc2)c(C(C)(C)C)c1	101
111	Cn1nccc1NS(=O)(=O)c1ccc(NS(=O)(=O)c2ccc(Cl)cc2)cc1	110
112	COc1ccccc1NC(=O)Cc1ccc(Br)cc1	100
113	COc1cccc(-c2nc(S(=O)(=O)c3ccc(C)cc3)c(N(C)C)o2)c1	100
114	CCCn1cc(SCC(N)=O)c2ccccc21	100
115	O=C(CCNC(=O)c1ccc(Br)o1)NC1CCCC1	99
116	O=C1CSC(c2cccc(C(F)(F)F)c2)N1c1ccc(F)c(Cl)c1 (stereo not given)	83
117	O=C(NCCC1=CCCCC1)c1ccc2c(c1)sc1nc(-c3ccccc3)cn12	103
118	Cc1ccc(NC(=O)c2cc(=O)[nH]c(=O)[nH]2)cc1	109
119	O=C(O)c1ccccc1C(=O)c1ccccc1	100
120	CC(C)(C)CC(=O)Nc1c(-c2cccs2)nc2ccccn12	101
121	COc1ccc(Cl)cc1Nc1nc2cc(C)ccc2cc1C#N	101
122	COC(=O)c1cc(OC(=O)c2nn(-c3ccccc3)nc2C)n(-c2ccccc2)n1	98
123	CCC(C)Sc1nnc(NC(=O)c2cc(Cl)ccc2OC)s1 (stereo not given)	93
124	O=C(/C=C/N1CCOCC1)c1cccs1	101
125	CCS(=O)(=O)Nc1ccc(Br)cn1	102
126	C/C(=N\N(C)c1ccccc1)C1=C(O)CC(C)(C)CC1=O	104
127	CCCOc1ccc(-c2nc(OCC)c3ccccc3n2)cc1	100
128	CCc1cccc2nc(SC(CC)C(=O)NN)n(-c3ccc(OC)cc3)c(=O)c12 (stereo not given)	101
129	CCOc1ccc(Nc2cc(C(=O)NCc3ccc(F)cc3)c3ccccc3n2)cc1	98
130	CN(C(=O)CSc1ccc(C(F)(F)F)cn1)c1c2c(nn1C)CCCC2	96
131	Cc1nc(Cl)c(C#N)cc1-c1ccccc1	94
132	O=C(CCCN1C(=O)/C(=C/C=C/c2ccccc2)SC1=S)NC1=NCCS1	93
133	Cc1ccc2nc(-c3ccc(N=Cc4c[nH]c5ccccc45)cc3)sc2c1	101
134	COc1ccc(-c2noc(-c3ccc(Cl)c(Cl)c3)n2)cc1	100
135	CCCc1c(C)nc(SCc2c(F)cccc2Cl)nc1OC(=O)N(C)C	98
136	COc1cccc(-c2nc(CS(=O)(=O)CC(=O)Nc3ccccc3C)c(C)o2)c1	102
137	N=c1c[n+](-c2ccc(Cl)cc2)[n-]o1	100
138	O=C(COC(=O)/C=C/c1ccccc1)Nc1c(F)cccc1F	88
139	O=C(CCCN1CC=C(n2c(=O)[nH]c3ccccc32)CC1)c1ccc(F)cc1	101
140	CN(C)/C=C/c1onc(-c2c(F)cccc2Cl)c1C#N	91
141	COc1ccc(C(CC(=O)NC2CCCC2)NS(=O)(=O)c2ccc(C)cc2)cc1 (stereo not given)	96
142	CCC(=O)N1CCCc2cc(S(=O)(=O)CCC(=O)Nc3ccc(CC)cc3)ccc21	103
143	COc1ccc(OC)c(C2=NOC(C(=O)N(C)C3CCCCC3)C2)c1 (stereo not given)	98

Assay outcomes as filed in PubChem BioAssay.
